FPR binder: human FPR ligand, with FPRL1 counter-screen | P21462 | FPR-expressing cells, fluorescent ligand binding, flow cytometry | inhibition, %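 (tested at 6.7 µM)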 | hit rate 0.74% among 24,000 | AID 440;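 further: 0% = buffer wells and 100% = receptor blocker peptide wells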
Target sequence (P21462 whole entry, looked up): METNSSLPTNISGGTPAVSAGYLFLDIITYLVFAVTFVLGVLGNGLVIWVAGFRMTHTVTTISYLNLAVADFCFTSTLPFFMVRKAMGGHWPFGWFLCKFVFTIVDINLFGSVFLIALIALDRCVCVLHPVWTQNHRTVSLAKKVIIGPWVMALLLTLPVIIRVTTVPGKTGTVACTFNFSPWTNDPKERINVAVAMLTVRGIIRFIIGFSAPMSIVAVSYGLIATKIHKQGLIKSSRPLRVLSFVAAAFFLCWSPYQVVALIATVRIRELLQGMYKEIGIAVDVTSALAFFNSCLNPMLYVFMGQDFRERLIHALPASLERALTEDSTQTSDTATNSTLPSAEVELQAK
VCAM-1 augmentation: boosters of cytokine-driven VCAM-1 levels – imaging, high-content imaging, pooled HUVEC, TNFa stimulus (AID 457); Pooled HUVEC, TNFa-induced VCAM-1 immunofluorescence imaging; hits of this screen are not shown here; calls only; hit rate 0.2% among 10,000;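 active means a top-ranked rise in VCAM-1 staining upheld on image or statistical review; inactive means the rest, including candidates rejected on review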;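 further: compounds tested at 5 µM in the well; cells exposed to compound for 24 hours before fixing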
VCAM-1 down: suppression of endothelial VCAM-1 upregulation – cell-based, plate reader, pooled HUVEC, TNFa stimulus (AID 454). HUVEC TNFa-induced VCAM-1 surface immunofluorescence, plate reader; numbers were filed only for top-ranked candidate wells. hit rate 0.2% among 10,000. inhibition, % at 5 µM;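 active means compound among top-ranked inhibitors of TNF-induced VCAM-1 adhesion protein staining, with the hit upheld by image or statistical review; inactive means the rest, including hits rejected on review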;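 further: 0% = TNFa with vehicle and 100% = cells without TNFa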
VCAM-1 imaging: suppression of endothelial VCAM-1 upregulation – imaging, high-content imaging, pooled HUVEC, TNFa stimulus (AID 456); hit rate 0.2% among 10,000; inhibition, % at 5 µM, or IC50 in µM where a hit was titrated; HUVEC TNFa-induced VCAM-1 surface expression, immunofluorescence imaging; numbers were filed only for top-ranked candidate wells;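 active means top tenth filtered wells with inhibition above zero that passed visual or statistical confirmation; inactive means the rest, including hits rejected on review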;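 further: 0% = stimulated vehicle wells and 100% = unstimulated cells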
FPRL1 binder: binds the human formylpeptide receptor-like-1 FPRL1; inhibition, %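 (tested at 6.7 µM)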; FPRL1-expressing cells, fluorescent ligand binding inhibition, flow cytometry; hit rate 0.3% among 24,000; P25090;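 further: 0% = buffer alone and 100% = receptor blocker peptide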
Target sequence (P25090 whole entry, looked up): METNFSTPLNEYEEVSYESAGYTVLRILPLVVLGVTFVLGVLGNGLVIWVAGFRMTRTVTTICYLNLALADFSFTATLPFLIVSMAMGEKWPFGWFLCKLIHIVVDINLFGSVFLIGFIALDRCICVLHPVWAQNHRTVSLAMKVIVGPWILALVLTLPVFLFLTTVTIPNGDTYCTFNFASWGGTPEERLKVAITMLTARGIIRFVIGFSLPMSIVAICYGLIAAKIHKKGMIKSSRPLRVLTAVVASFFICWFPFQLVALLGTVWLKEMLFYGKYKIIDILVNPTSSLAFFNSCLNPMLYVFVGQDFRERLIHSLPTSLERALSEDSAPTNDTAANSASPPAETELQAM
An asterisk follows results filed as active; i = inactive; x = no result given.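 How the source made its calls, unless noted: active means mean above 30%; inconclusive means self-fluorescent; inactive means the rest.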 Not all compounds are listed (hit frequency here may not be typical).

SMILES | FPR binder | VCAM-1 augmentation | VCAM-1 down | VCAM-1 imaging | FPRL1 binder
CCN(Cc1ccccc1)C(=O)CCc1nc(-c2ccc(C)cc2)no1 | 0 | x | x | x | -1
CC(=O)C1=C(O)C(=O)N(Cc2cccnc2)C1c1ccccc1Cl (configuration not stated) | 15 | x | x | x | 12
O=C(CCn1c(=O)sc2ccccc21)NC1=NCCS1 | -5 | i | i | i | 2
CCCN1CC=C2C(C#N)=C(N)C(C#N)(C#N)C(c3cccc(OC)c3OC)C2C1 (configuration not stated) | -1 | x | x | x | -8
CCc1nnc(NC(=O)COC(=O)CN2C(=O)c3ccccc3C2=O)s1 | 3 | i | i | i | 3
CC1CCc2nn(CC(=O)NCCCN3CCCCC3)cc2C1 (configuration not stated) | -4 | x | x | x | 0
Cc1cc(O)c(C(C)C)cc1N=C1CSC(=O)N1 | 8 | i | i | i | -1
CCCCOC(=O)C1=C(C)NC2=C(C(=O)CCC2)C1c1cc(OC)ccc1OC (configuration not stated) | 5 | x | x | x | 2
O=C(NCC1CCCO1)c1ccc(NC(=O)C2CCCCC2C(=O)O)cc1 (configuration not stated) | 27 | x | x | x | 27
CC1CCN(CC(O)COC2CCC(C(C)(C)C)CC2)CC1 (configuration not stated) | -2 | i | i | i | -5
Cc1[nH]c(C(=O)N2CCCCC2)c(C)c1C(=O)NC1CCCCC1 | -2 | i | i | i | -12
CCn1c(C(=O)N2CCCC(C(=O)NCCc3ccc(C)cc3)C2)cc2sccc21 (configuration not stated) | 15 | x | x | x | -7
COc1ccc(N2CCN(C(=O)CCNS(=O)(=O)c3ccc4c(c3)CCC(=O)N4)CC2)cc1 | 10 | x | x | x | 7
C=CCn1c(SCC(=O)Nc2ccc(C)cc2C)nnc1-c1cccnc1 | 2 | x | x | x | 4
N#Cc1c(NC(NC(=O)c2ccco2)C(=O)c2ccccc2)sc2c1CCCC2 (configuration not stated) | 7 | i | i | i | -3
CCCn1c(=O)c2c(c3ccccc31)OCC(=O)N2 | 2 | x | x | x | 4
COc1ccc(OC)c(C2C(C(=O)c3cccs3)=C(O)C(=O)N2c2cc(C)on2)c1 (configuration not stated) | 56* | x | x | x | 0
O=c1cc(CSc2nnnn2-c2ccccc2)nc2scc(-c3ccccc3)n12 | 0 | i | i | i | -1
Cc1cc(C)c(S(=O)(=O)NCc2cn3c(C)csc3n2)cc1C | 8 | x | x | x | 2
COc1ccc(-c2noc(CCC(=O)NCc3cc(Br)ccc3OC)n2)cc1 | 6 | x | x | x | 12
Cc1ccc(-c2nnn(Cc3nc(N)nc(N4CCOCC4)n3)n2)cc1 | -3 | x | x | x | -2
COc1ccc(N2CCN(CCCNC(=O)C3(S(=O)(=O)c4ccc(Cl)cc4)CC3)CC2)cc1 | -7 | i | i | i | 1
CC(CC(=O)NCc1ccccc1)C1CCCO1 (configuration not stated) | 5 | i | i | i | -1
COc1ccc(-c2c(C)nn3c(N4CCN(Cc5ccccc5)CC4)cc(C)nc23)cc1OC | 5 | x | x | x | 11
Cc1cc(NC(=O)CSc2nc3c([nH]c4ccccc43)c(=O)n2-c2cccc(C(F)(F)F)c2)no1 | -9 | x | x | x | -13

A run of entries from the list above, as a working copy:
SMILES | FPR binder | VCAM-1 augmentation | VCAM-1 down | VCAM-1 imaging | FPRL1 binder
COc1ccc(N2CCN(CCCNC(=O)C3(S(=O)(=O)c4ccc(Cl)cc4)CC3)CC2)cc1 | -7 | i | i | i | 1
CC(CC(=O)NCc1ccccc1)C1CCCO1 (configuration not stated) | 5 | i | i | i | -1
COc1ccc(-c2c(C)nn3c(N4CCN(Cc5ccccc5)CC4)cc(C)nc23)cc1OC | 5 | x | x | x | 11
Cc1cc(NC(=O)CSc2nc3c([nH]c4ccccc43)c(=O)n2-c2cccc(C(F)(F)F)c2)no1 | -9 | x | x | x | -13

The listing continues.
SMILES | FPR binder | VCAM-1 augmentation | VCAM-1 down | VCAM-1 imaging | FPRL1 binder
COCCN1Cc2cccc(C(=O)Nc3cc(OC)ccc3OC)c2C1=O | -7 | x | x | x | -2
COc1ccc(C2C(C(=O)O)CC(=O)N2c2ccc(OC)cc2)cc1 (configuration not stated) | 11 | x | x | x | 10
CN1CC=C2C(C#N)=C(N)C(C#N)(C#N)C(Cc3ccccc3)C2C1 (configuration not stated) | -6 | i | i | i | 2
CCOC(=O)C1=C(N)c2ccccc2CC1C(C)C (configuration not stated) | 8 | i | i | i | -4
CNC(=O)c1nnn(Cc2ccccc2)c1NC(C)=O | -7 | i | i | i | -1
O=C(CSc1ncnc2ccccc12)NCCCO | 5 | i | i | i | 5
Cc1noc(C)c1S(=O)(=O)NC1CCN(Cc2ccccc2)CC1 | -1 | x | x | x | -1
COCCNC(=O)CN1CCC(NC(=O)Nc2ccc(C(F)(F)F)cc2)CC1 | -3 | i | i | i | -6
CCN1CCN(C(=O)c2nn(-c3ccc(OC)cc3)c(=O)c3c2c2ccccc2n3C)CC1 | 9 | x | x | x | 5
O=C(C1CCN(S(=O)(=O)c2cccnc2)CC1)N1CCN(c2ccc(Cl)cc2)CC1 | 0 | i | i | i | 2
COC(=O)CS(=O)(=O)c1nnc([C@H](Cc2ccccc2)NC(=O)OC(C)(C)C)o1 | 9 | i | i | i | 6
Nn1c(Cc2ccccc2F)nnc1SCC(=O)N1CC(=O)Nc2ccccc21 | 0 | i | i | i | -2
O=C1c2ccccc2C(=O)N1C/C=C/c1ccccc1 | -5 | i | i | i | 2
COc1ccc(CNC(=O)C(C)NC(=O)c2cc3ccccc3o2)cc1 (configuration not stated) | 5 | x | x | x | 7
COc1ccc(/C(O)=C2/C(=O)C(=O)N(CCCN(C)C)C2c2ccco2)cc1Cl (configuration not stated) | 7 | i | i | i | 11
Clc1ccccc1OCCCCn1ccnc1 | 2 | i | i | i | 0
Cc1cc(C)n(-c2ccc(C(=O)Nc3ccc4c(c3)OCCO4)cc2)n1 | 7 | i | i | i | -11
COC(=O)c1cc2c(s1)-c1ccccc1OC2 | 12 | x | x | x | 1
COc1ccc(CCNC(=O)c2oc3ccc(S(=O)(=O)N4CCOCC4)cc3c2C)cc1OC | -1 | x | x | x | -5
Cc1ccc(-c2ccc(=O)n(CC(=O)NCCN3C(C)CCCC3C)n2)cc1 (configuration not stated) | 3 | x | x | x | 13
COc1ccccc1CNC(=O)CCCNS(=O)(=O)c1cccc2nsnc12 | 0 | x | x | x | 2
CCOC(=O)N1CCN(C(=O)c2ccc(N3CCCC3=O)cc2)CC1 | -4 | x | x | x | -10
CCc1ccccc1OCCCCN1CCCC1 | -3 | i | i | i | 0
CC(C)N1C(=O)CCC1C(=O)N1CCN(c2ccccn2)CC1 (configuration not stated) | 2 | x | x | x | 2
N#CCc1ccc(NS(=O)(=O)c2ccc(N3CCCC3=O)cc2)cc1 | -2 | x | x | x | -4

New compounds follow.
SMILES | FPR binder | VCAM-1 augmentation | VCAM-1 down | VCAM-1 imaging | FPRL1 binder
COc1ccc2[nH]c(=O)c(CNC3CCCCC3)cc2c1 | -5 | i | i | i | -2
O=C(Cc1ncn[nH]1)NCCc1ccccc1 | -4 | x | x | x | 6
Cc1nc(C)c(C(=O)Nc2nc3c(C)cccc3s2)o1 | 9 | x | x | x | -2
COC(=O)c1ccccc1NC(=O)Nc1nnc(N2CCCCC2C)s1 (configuration not stated) | 0 | x | x | x | 2
CCOC(=O)c1cc(-c2ccccc2)n(CC(=O)N2CCCC2)c1C | -7 | x | x | x | -4
CCOc1ccc(C2CC(c3cccc(OC)c3)Nc3nc(N)nn32)cc1 (configuration not stated) | -4 | i | i | i | 2
CC1(C)OC(C(N)=O)C(C(N)=O)O1 (configuration not stated) | -4 | x | x | x | 2
COc1ccc(-n2c(CNC(=O)c3ccc(S(=O)(=O)N4CCCC4)cc3)n[nH]c2=S)cc1 | -1 | x | x | x | 2
O=C(Cc1c(C(=O)O)[nH]c2ccccc12)NCCN1CCN(c2cccc(Cl)c2)CC1 | -1 | x | x | x | 1
CC(=O)c1cc2cc(O)ccc2o1 | 1 | x | x | x | 3
O=S(=O)(NC1CCCCCC1)c1cccc2cccnc12 | -1 | x | x | x | -3
CC1CCc2cc(F)cc3c(O)c(C(=O)NCC4CCCO4)c(=O)n1c23 (configuration not stated) | 6 | i | i | i | -4
Cc1cc(NCC2CCCO2)n2c(nc3ccccc32)c1C#N (configuration not stated) | -1 | i | i | i | -2
NC(=O)c1cccn1Cc1ccccc1Cl | 1 | x | x | x | 2
CC(C)CN(CCCNC(=O)CC1Oc2ccccc2NC1=O)CC(C)C (configuration not stated) | -1 | x | x | x | 5
Cc1ccc(N(C)C(=O)N2CCN(S(=O)(=O)c3ccc(C)cc3)CC2)cc1 | 2 | x | x | x | 0
COc1ccc(NC(C)=O)cc1NC(=O)CN1CCN(CC(=O)Nc2ccccc2Cl)CC1 | -4 | x | x | x | -4
CCn1c(=O)n(CC(=O)Nc2cc(OC)ccc2OC)c(=O)c2ccccc21 | 3 | i | i | i | 2
O=C(NCCCN1CCCCCC1)c1ccc(N2CCCC2=O)cc1 | -8 | x | x | x | 3
CC(=O)c1cccc(NC(=O)C2CCCN(S(=O)(=O)c3cccc4cccnc34)C2)c1 (configuration not stated) | 1 | x | x | x | -5
CCCSc1ncnc2c1oc1ccccc12 | 3 | x | x | x | -2
CCOC(=O)CN(Cc1ccccc1)S(=O)(=O)c1ccc(NC(C)=O)cc1 | -1 | x | x | x | 0
COc1ccc(-c2nc(CS(=O)CC(=O)NCc3cccnc3)c(C)o2)cc1 (configuration not stated) | -3 | x | x | x | 12
CCN(Cc1ccccc1)C(=O)Cn1cc2c(n1)CCCC2 | 17 | x | x | x | 15
COc1cc2nc(N(C)C)nc(N)c2cc1OC | 8 | x | x | x | -6

Laid out differently: 4 of the compounds above.
Structure: Cc1nc(C)c(C(=O)Nc2nc3c(C)cccc3s2)o1
  FPR binder: 9	VCAM-1 augmentation: x	VCAM-1 down: x	VCAM-1 imaging: x	FPRL1 binder: -2

Structure: COc1ccc(-c2nc(CS(=O)CC(=O)NCc3cccnc3)c(C)o2)cc1 (configuration not stated)
  FPR binder: -3	VCAM-1 augmentation: x	VCAM-1 down: x	VCAM-1 imaging: x	FPRL1 binder: 12

Structure: CCn1c(=O)n(CC(=O)Nc2cc(OC)ccc2OC)c(=O)c2ccccc21
  FPR binder: 3	VCAM-1 augmentation: i	VCAM-1 down: i	VCAM-1 imaging: i	FPRL1 binder: 2

Structure: COC(=O)c1ccccc1NC(=O)Nc1nnc(N2CCCCC2C)s1 (configuration not stated)
  FPR binder: 0	VCAM-1 augmentation: x	VCAM-1 down: x	VCAM-1 imaging: x	FPRL1 binder: 2

Remaining list, next part
SMILES | FPR binder | VCAM-1 augmentation | VCAM-1 down | VCAM-1 imaging | FPRL1 binder
O=C(Nc1ccccc1Cl)c1c(F)c(F)c(F)c(F)c1F | -12 | i | i | i | 5
Cc1ccc(C)c(/C(O)=C2\C(=O)C(=O)N(CCCn3ccnc3)C2c2ccncc2)c1 (configuration not stated) | 37* | x | x | x | 25
CCC1Oc2ccc(C)cc2N(CC(=O)NCc2ccccc2OC)C1=O (configuration not stated) | 3 | x | x | x | 13
Cc1cc(C)c(NC(=O)Cn2cc3c(n2)CCCC3)c(C)c1 | 3 | i | i | i | 2
Cc1ccc(Cn2ccc(NC(=O)c3cc(C(C)C)on3)n2)cc1 | -1 | x | x | x | 2
COc1ccc(NC(=O)c2cc(C(C)C)on2)c(OC)c1 | 8 | i | i | i | -6
CN1C(=O)CC(N2CCC(C(N)=O)(N3CCCCC3)CC2)C1=O (configuration not stated) | -3 | i | i | i | 3
O=C(NC1CCCCC1)C(c1ccccc1)N1CCOCC1 (configuration not stated) | 2 | x | x | x | 0
O=C(O)c1cccnc1-c1ncccc1C(=O)O | 0 | x | x | x | 1
CCN(CC)Cc1c[nH]c2c(C(=O)OC)cccc12 | -5 | x | x | x | 0
O=C(Nc1ccccc1N1CCN(c2ccc(F)cc2)CC1)c1ccccc1 | -10 | i | i | i | -11
CCOC(=O)c1[nH]c(C)c(C(=O)NC2CCCCCC2)c1C | 1 | x | x | x | 1
O=C(NCc1cn2ccsc2n1)c1cccc(C(F)(F)F)c1 | -10 | x | x | x | -4
CC(C)(S)[C@@H](N)C(=O)O | 6 | i | i | i | 11
COc1ccc(OC)c(CCNC(=O)CC2Oc3ccccc3NC2=O)c1 (configuration not stated) | 0 | x | x | x | 4
O=C(NCCN1CCOCC1)C1CCN(S(=O)(=O)N2CCCCC2)CC1 | -3 | x | x | x | -3
COc1cccc(-c2nc(CS(=O)CC(=O)O)c(C)o2)c1 (configuration not stated) | 18 | x | x | x | 15
CCOC(=O)c1nnc2ccnn2c1N | -3 | i | i | i | 0
CCCNC(=O)N1CCN(c2nc(C(C)C)c3c(c2C#N)CC(C)(C)OC3)CC1 | -20 | x | x | x | -8
Cc1ccc(/C(O)=C2/C(=O)C(=O)N(CCN3CCOCC3)C2c2ccccn2)cc1 (configuration not stated) | -3 | x | x | x | 2

Assay outcomes (PubChem BioAssay)
